Screens from PubChem BioAssay.
A1 inh: inducers of caspase activity in MEF A1-2A-BIM cells, primary screen, A1 inhibitor project, cell-based, CaspaseGlo luminescence. caspase-Glo luminescence, 3 h; percent of clofoctol signal, DMSO as zero. caspase activation, % (no concentration beside the values). 21,000 compounds, 0.51% hits. AID 2241, 2010;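 active = most replicate scores above 10, or exactly half above 10 with mean activity above 10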;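 also: effector caspase 3 and 7 activity cleaving a DEVD luciferin substrate; 50 nL library stock added to about 30 µL; numbers are from one replicate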
BJeLR viability: BJeLR cell viability loss, primary screen, luminescence, CellTiterGlo ATP. 30,000 compounds, 0.64% hits. BJeLR fibroblasts viability, 48 h; HRASV12, hTERT and SV40 LT/ST transformed. viability loss activity score, % (test concentration not listed); in the data active = viability loss activity score above about 50%; about a fifth of its hits are not listed in these tables;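 also: higher score means fewer live cells and less ATP luminescence; stock transfer was 50 or 100 nL into about 30 µL; 0% = vehicle wells and 100% = a reference killing control; one replicate is shown; the record names a cut of 85%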
* marks the source's active call; other numbers are inactive results; x = not tested or not shown. Only part of the results is shown (hit frequency here may not be typical).

Sample of the layout (three entries):
SMILES | A1 inh | BJeLR viability
CC1=C2CCC(C(=O)O)=CC2C(C(C)C)CC1 (centres undefined) | 0.0 | -2.5
CCOc1ccc(NC(=O)CCCn2nc(CC)n3c(cc4occc43)c2=O)cc1 | -0.4 | 5.8
CSC1=N/C(=C\C=C\c2cccs2)C(=O)S1 | -2.9 | 0.2

The listing, from the first entry:
SMILES | A1 inh | BJeLR viability
CC1=C2CCC(C(=O)O)=CC2C(C(C)C)CC1 (centres undefined) | 0.0 | -2.5
CCOc1ccc(NC(=O)CCCn2nc(CC)n3c(cc4occc43)c2=O)cc1 | -0.4 | 5.8
CSC1=N/C(=C\C=C\c2cccs2)C(=O)S1 | -2.9 | 0.2
Cc1cc(O)c(Cc2c(O)cc(C)c(C=O)c2O)c(O)c1C | -0.1 | -0.5
CCNC(=S)N1CCN=C1Nc1nc(C)cc(C)n1 | x | 1.1
O=C(c1cc2ccccc2o1)N1CCCc2ccccc21 | -5.0 | -1.4
Cc1cc(OCC(O)CNC(C)(C)C)ccc1Cl (centres undefined) | 0.9 | -0.9
CC(C)COC(=O)c1ccc2c(c1)C1C=CCC1C(c1ccc(Cl)cc1)N2 (centres undefined) | 0.3 | 2.9
COC(=O)C1(Cc2ccc(O)cc2)OC(=O)C(OC)=C1c1ccc(O)cc1 (centres undefined) | -0.2 | 6.1
COc1ccccc1CC(=O)Nc1ccc(-c2nc3ccccc3[nH]2)cc1 | 29* | 23
CCc1ccc(-c2cc(O)cc3sc(=O)oc23)cc1 | -1.1 | -4.2
COc1ccc(S(=O)(=O)Nc2cncc(C(=O)NCc3ccc(C)cc3)c2)cc1 | -0.3 | -1.1
C[C@@H]1CN([C@H](C)CO)C(=O)c2cccc(NS(C)(=O)=O)c2O[C@@H]1CN(C)C | x | 0.9
O=C(NCCCN1CCCC1=O)c1ccc(N2CCCC2=O)cc1 | x | -8.4
CSc1ccc(/C=N/n2nnnc2Nc2ccccc2)cc1 | -0.6 | 3.2
C=C(C(=O)O)[C@@H]1CC[C@@]2(C)CC(=O)C=C(C)C2C1 (some centres undefined) | 0.2 | -0.1
C[C@H](CO)N1C[C@H](C)[C@H](CN(C)Cc2ccc(Oc3ccccc3)cc2)Oc2c(NS(=O)(=O)c3ccc(Cl)cc3)cccc2C1=O | x | 2.0
Nc1c(C(=O)NCc2ccccn2)nnn1-c1ccc(OC(F)(F)F)cc1 | 0.8 | -0.2
COc1ccc(NC(=O)Nc2cccc3c2O[C@@H](CN(C)C(=O)Nc2ccc(C(F)(F)F)cc2)[C@H](C)CN([C@H](C)CO)C3=O)cc1 | x | -3.4
COc1ccc(NC(=O)N(C)C[C@@H]2Oc3ccc(NC(=O)Cc4ccccc4)cc3C(=O)N([C@H](C)CO)C[C@@H]2C)cc1 | 0.7 | -0.4

Continued; it opens with the five that closed the last part.
SMILES | A1 inh | BJeLR viability
C=C(C(=O)O)[C@@H]1CC[C@@]2(C)CC(=O)C=C(C)C2C1 (some centres undefined) | 0.2 | -0.1
C[C@H](CO)N1C[C@H](C)[C@H](CN(C)Cc2ccc(Oc3ccccc3)cc2)Oc2c(NS(=O)(=O)c3ccc(Cl)cc3)cccc2C1=O | x | 2.0
Nc1c(C(=O)NCc2ccccn2)nnn1-c1ccc(OC(F)(F)F)cc1 | 0.8 | -0.2
COc1ccc(NC(=O)Nc2cccc3c2O[C@@H](CN(C)C(=O)Nc2ccc(C(F)(F)F)cc2)[C@H](C)CN([C@H](C)CO)C3=O)cc1 | x | -3.4
COc1ccc(NC(=O)N(C)C[C@@H]2Oc3ccc(NC(=O)Cc4ccccc4)cc3C(=O)N([C@H](C)CO)C[C@@H]2C)cc1 | 0.7 | -0.4
C[C@@H]1CN([C@H](C)CO)C(=O)c2cccc(NC(=O)Nc3ccc(C(F)(F)F)cc3)c2O[C@@H]1CN(C)S(=O)(=O)c1ccc(Cl)cc1 | x | -6.3
CCCn1cnc2cc(NCc3ccc(Cl)cc3Cl)ccc21 | x | -1.5
CC1(C)C(=O)C=C[C@@]2(C)C1CC(=O)[C@@]1(C)C3=CC(=O)O[C@@H](c4ccoc4)[C@]3(C)CCC12 (some centres undefined) | 1.0 | 23
C[C@@H]1CN([C@H](C)CO)C(=O)c2cccc(NC(=O)c3ccc(-c4nccs4)cc3)c2O[C@H]1CN(C)S(C)(=O)=O | x | 0.8
C[C@@H]1CN([C@H](C)CO)C(=O)c2cccc(NC(=O)c3cnccn3)c2O[C@H]1CN(C)Cc1ccc2c(c1)OCO2 | x | -4.8
C[C@H]1CN([C@@H](C)CO)C(=O)c2cccc(NC(=O)C3CC3)c2O[C@@H]1CN(C)Cc1ccc(C(=O)O)cc1 | x | 0.9
C[C@@H]1CN([C@@H](C)CO)C(=O)c2cc(NC(=O)Nc3ccc(C(F)(F)F)cc3)ccc2O[C@@H]1CN(C)Cc1ccc(C(=O)Nc2ccccc2N)cc1 | x | 12
C[C@@H]1CN([C@@H](C)CO)C(=O)c2cc(NC(=O)CCC(F)(F)F)ccc2O[C@@H]1CN(C)C(=O)Nc1ccc(C(F)(F)F)cc1 | -0.3 | -2.1
C[C@@H]1CN([C@@H](C)CO)C(=O)c2cccc(N(C)C)c2O[C@H]1CN(C)Cc1ccc(-c2ccccc2)cc1 | x | -2.6
O=C(Nc1ccccc1)C1CC(=O)n2ncnc2N1 (centres undefined) | 0.4 | -2.9
C[C@@H]1CN([C@@H](C)CO)C(=O)c2cccc(NS(=O)(=O)c3ccc(Cl)cc3)c2O[C@@H]1CN(C)CC1CC1 | x | -1.3
Cc1c(C(=O)O)sc2ncn(Cc3ccccc3F)c(=O)c12 | 1.1 | -0.6
CC(C)NC(=O)N(C)C[C@H]1Oc2c(NS(=O)(=O)c3ccc(Cl)cc3)cccc2C(=O)N([C@H](C)CO)C[C@H]1C | x | 1.7
C[C@H]1CN([C@@H](C)CO)C(=O)c2cc(NC(=O)C3CCCCC3)ccc2O[C@H]1CN(C)Cc1ccc(C(=O)Nc2ccccc2N)cc1 | x | 12
C[C@@H]1CN([C@H](C)CO)C(=O)c2cccc(NC(=O)NC3CCCCC3)c2O[C@@H]1CN(C)S(C)(=O)=O | x | -2.9
C[C@@H]1CN([C@@H](C)CO)C(=O)c2cccc(NC(=O)c3ccncc3)c2O[C@H]1CN(C)Cc1ccc(Cl)c(Cl)c1 | x | -0.9
C[C@H]1CN([C@@H](C)CO)C(=O)c2cccc(NC(=O)C3CC3)c2O[C@H]1CN(C)Cc1ccc(C(=O)O)cc1 | x | 4.4
C[C@@H]1CN([C@@H](C)CO)C(=O)c2cc(NS(=O)(=O)c3cn(C)cn3)ccc2O[C@@H]1CN(C)Cc1ccc(-c2ccccc2)cc1 | 1.4 | -4.1
C[C@@H]1CN([C@@H](C)CO)C(=O)c2cccc(NS(=O)(=O)c3ccccc3)c2O[C@@H]1CN(C)S(=O)(=O)c1cn(C)cn1 | x | 2.3
Cc1cc(C(=O)Nc2cccc3c2O[C@@H](CN(C)C(=O)Nc2c(C)noc2C)[C@@H](C)CN([C@H](C)CO)C3=O)n(C)n1 | x | 0.5
C[C@H]1CN([C@@H](C)CO)C(=O)c2cccc(NC(=O)Nc3ccc(F)cc3)c2O[C@@H]1CN(C)S(=O)(=O)c1cccs1 | x | -0.8
COc1ccc(NC(=O)Nc2ccc3c(c2)C(=O)N([C@@H](C)CO)C[C@@H](C)[C@@H](CN(C)S(=O)(=O)c2ccc(Cl)cc2)O3)cc1 | -0.5 | -1.8
Cc1cc(C(=O)Nc2cccc3c2O[C@H](CN(C)S(=O)(=O)c2cn(C)cn2)[C@@H](C)CN([C@@H](C)CO)C3=O)n(C)n1 | x | -2.6
COc1ccc(S(=O)(=O)Nc2cccc3c2O[C@@H](CN(C)C(=O)Nc2cccc4ccccc24)[C@@H](C)CN([C@@H](C)CO)C3=O)cc1 | x | -4.9
CCSc1nccc(-c2ccc3c(c2)CCC(C)(C)O3)n1 | -1.9 | 1.9
Cc1ccc(-c2cnc(-c3ccc(Br)cc3)o2)cc1 | -0.2 | -5.3
C[C@@H]1CN([C@H](C)CO)C(=O)c2cccc(NC(=O)Nc3ccc(F)cc3)c2O[C@H]1CN(C)CC1CCCCC1 | x | 1.5
CCOC(=O)c1cnc2c(C)cc(C)cc2c1Nc1ccc2c(c1)OCCO2 | 0.1 | 6.7
C[C@@H]1CN([C@H](C)CO)C(=O)c2cc(NS(=O)(=O)c3ccc(Cl)cc3)ccc2O[C@H]1CN(C)C | 0.1 | 3.6
Nc1c(C(=O)c2ccc(Br)cc2)sc2[nH]c(=O)c(C(=O)O)cc12 | x | -1.0
Cc1ccc(N(CCCCN2C(=O)c3ccccc3C2=O)C(=O)c2cccc(Cl)c2)cc1 | 0.3 | -3.7
C[C@H](CO)N1C[C@H](C)[C@@H](CN(C)C(=O)Nc2ccc(C(F)(F)F)cc2)Oc2ccc(NC(=O)Nc3ccccc3)cc2C1=O | 0.5 | -0.2
COc1ccc(S(=O)(=O)Nc2ccc3c(c2)C(=O)N([C@@H](C)CO)C[C@H](C)[C@@H](CN(C)S(=O)(=O)c2ccc(OC)cc2)O3)cc1 | 0.4 | -0.2
C[C@@H]1CN([C@@H](C)CO)C(=O)c2cc(N(C)C)ccc2O[C@H]1CN(C)C | 0.0 | 3.0
COc1ccc(CN(C)C[C@@H]2Oc3ccc(NS(=O)(=O)c4ccc(F)cc4)cc3C(=O)N([C@@H](C)CO)C[C@@H]2C)cc1 | 1.6 | 0.1
C[C@@H]1CN([C@@H](C)CO)C(=O)c2cc(NS(=O)(=O)c3ccc(F)cc3)ccc2O[C@H]1CN(C)Cc1ccc(C(=O)Nc2ccccc2N)cc1 | x | -1.3
CC(=O)Oc1ccc(N(C(C)=O)S(=O)(=O)c2ccc(Cl)cc2)cc1 | 0.0 | -1.2
NC(=Nc1ccc(Cl)c(Cl)c1)c1ccccc1 | -4.9 | 6.3
Cn1cc(Cl)c(C(=O)N2CCc3ccccc3C2)n1 | 1.1 | 5.4
O=C1c2ccccc2C(=O)N1CCCC(=O)n1ccc2ccccc21 | x | -4.4
C[C@H]1CN([C@@H](C)CO)C(=O)c2cc(NC(=O)CCC(F)(F)F)ccc2O[C@H]1CN(C)C(=O)Nc1ccccc1 | 0.0 | -0.5
Cc1cccc(NC(=O)CCC2=NS(=O)(=O)c3cc(Br)cnc3N2)c1 | 0.0 | -8.8
COc1ccc(NC(=O)Nc2ccc3c(c2)C(=O)N([C@@H](C)CO)C[C@@H](C)[C@H](CN(C)Cc2ccc4c(c2)OCO4)O3)cc1 | 0.0 | -2.0
C[C@@H]1CN([C@H](C)CO)C(=O)c2cccc(NC(=O)c3nc4ccccc4s3)c2O[C@H]1CN(C)S(=O)(=O)c1ccccc1 | x | -3.5
C[C@H](CO)N1C[C@H](C)[C@H](CN(C)C)Oc2ccc(NS(=O)(=O)c3cccs3)cc2C1=O | 0.4 | 3.0
CCOC(=O)CN1C(=O)/C(=C\c2ccc(OC)c(Br)c2)Sc2ccccc21 | 0.0 | 1.7
COc1ccc(NC(=O)Nc2ccc3c(c2)C(=O)N([C@H](C)CO)C[C@H](C)[C@H](CN(C)C)O3)cc1 | 0.3 | 1.1
Cc1ccccc1NC(=O)c1ccc2nc(N3CCC(C)CC3)sc2c1 | 0.6 | 1.5
CC1CCC(NC(=O)CCC(=O)Nc2nc(-c3cc4ccccc4oc3=O)cs2)CC1 (centres undefined) | 0.2 | -3.7
Cc1cc(C)c2c(=O)n(CC(=O)Nc3ccc(Cl)cc3)sc2n1 | -1.6 | -3.8
O=C(CSc1ccccn1)Nc1ccccc1C(F)(F)F | 0.6 | -2.8
COc1ccc(-c2nc3cc(C)ccc3o2)cc1 | -7.4 | 21
Cc1ccccc1S(=O)c1ccccc1C(=O)O (centres undefined) | -0.7 | -3.2
C[C@@H]1CN([C@@H](C)CO)C(=O)c2cc(NC(=O)Nc3cccc4ccccc34)ccc2O[C@@H]1CN(C)Cc1ccc(C(=O)Nc2ccccc2N)cc1 | x | 7.9
C[C@@H]1CN([C@H](C)CO)C(=O)c2cc(NS(=O)(=O)c3ccccc3)ccc2O[C@@H]1CN(C)S(=O)(=O)c1ccc(Cl)cc1 | 0.2 | 5.6
C=CCc1ccccc1OCC(O)Cn1c2ccccc2c2ccccc21 (centres undefined) | -0.9 | -3.2
C[C@@H]1CN([C@@H](C)CO)C(=O)c2cccc(NS(=O)(=O)c3cn(C)cn3)c2O[C@@H]1CN(C)CC1CC1 | x | -0.5
CC(C)NC(=O)N(C)C[C@@H]1Oc2ccc(NC(=O)Cn3cnnn3)cc2C(=O)N([C@@H](C)CO)C[C@H]1C | 0.4 | 1.6
O=C(CSc1nnc2ccc3ccccc3n12)NCC1CCCO1 (centres undefined) | 0.4 | 2.9
O=C(O)CCn1nc(-c2ccc(F)cc2)ccc1=O | x | -0.8
Carrying on.
SMILES | A1 inh | BJeLR viability
CN1Cc2cc3c(cc2CCC(=O)c2cc4c(cc2C1)OCO4)OCO3 | -0.5 | -4.3
C[C@H](CO)N1C[C@H](C)[C@H](CN(C)C(=O)Nc2ccccc2)Oc2ccc(NC(=O)Cc3ccccc3)cc2C1=O | 0.4 | -6.0
COc1ccc(S(=O)(=O)Nc2ccc3c(c2)C(=O)N([C@@H](C)CO)C[C@@H](C)[C@@H](CN(C)Cc2ccc(Oc4ccccc4)cc2)O3)cc1 | 0.2 | -4.0
C[C@H](CO)N1C[C@H](C)[C@@H](CN(C)Cc2ccc(Oc3ccccc3)cc2)Oc2c(NC(=O)C3CCOCC3)cccc2C1=O | x | -3.4
Cc1c(NC(=O)C(C)(C)C)c(=O)n(-c2ccccc2)n1C | 0.5 | -0.8
O=c1cc(-c2ccc(O)c(O)c2)c2c(O[C@@H]3O[C@H](CO)[C@@H](O)[C@H](O)[C@H]3O)cc(O)cc2o1 | -0.6 | -3.6
